# Mtb H37Rv = M. tuberculosis H37Rv growth inhibitors, H37Rv strain (AID 1626); M. tuberculosis H37Rv growth inhibition; higher % means a stronger effect; inhibition, % at 10 µM; hits with a dose series show IC50 in µM; actives 0.95% (n = 220,000);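 active = confirmed in a dose series; inconclusive = inhibition above 80% but not taken into the dose series; inactive = below 80% or under 30% at every dose of the series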;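 also: bacteria incubated seven days before Alamar blue readout; 0% = bacteria only wells and 100% = bacteria with antibiotic wells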
# RecA intein inh = blocks M. tuberculosis RecA intein splicing. actives 0.75% (n = 290,000). AID 2221. P9WHJ3. cell-free RecA intein splicing, fluorescence. inhibition, %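 (about 9 µM by stock and volumes)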; in the data active = inhibition above about 30%; inconclusive = no clear call, values can overlap the other calls;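 also: 0% = vehicle wells and 100% = reference inhibitor control wells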
# Target sequence (P9WHJ3 whole entry, looked up): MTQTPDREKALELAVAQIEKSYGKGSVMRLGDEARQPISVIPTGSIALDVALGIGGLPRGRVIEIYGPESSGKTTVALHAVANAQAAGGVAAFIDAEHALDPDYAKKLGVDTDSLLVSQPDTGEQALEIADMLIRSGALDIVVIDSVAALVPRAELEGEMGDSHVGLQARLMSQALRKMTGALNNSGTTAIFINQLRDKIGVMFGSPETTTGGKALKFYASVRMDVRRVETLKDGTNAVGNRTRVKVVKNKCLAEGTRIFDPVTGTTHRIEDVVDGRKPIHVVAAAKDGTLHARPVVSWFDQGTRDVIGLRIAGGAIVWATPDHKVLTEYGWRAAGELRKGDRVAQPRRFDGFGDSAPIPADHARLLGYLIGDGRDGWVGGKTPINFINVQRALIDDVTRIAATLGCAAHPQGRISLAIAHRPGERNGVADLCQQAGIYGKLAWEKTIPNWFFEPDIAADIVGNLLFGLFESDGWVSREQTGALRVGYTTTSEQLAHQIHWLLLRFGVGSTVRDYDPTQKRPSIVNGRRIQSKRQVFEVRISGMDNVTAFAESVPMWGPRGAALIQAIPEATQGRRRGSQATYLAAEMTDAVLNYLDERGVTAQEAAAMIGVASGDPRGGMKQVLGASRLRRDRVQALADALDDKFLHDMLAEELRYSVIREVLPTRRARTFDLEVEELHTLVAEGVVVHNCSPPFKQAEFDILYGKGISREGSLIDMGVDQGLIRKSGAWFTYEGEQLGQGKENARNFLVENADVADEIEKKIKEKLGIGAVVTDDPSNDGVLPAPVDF
# YopH inh = inhibitors of Yersinia enterocolitica YopH tyrosine phosphatase; fluorescence Ex485/Em525; inhibition, %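 (about 10 µM by stock and volumes)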; actives 0.16% (n = 140,000);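 active = inhibition of 50% or more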;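 also: controls were vehicle for no effect and minimum signal wells for full effect; inactives centre near -20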
# Mtb bLac sens = beta-lactam sensitization of Mtb H37Rv; M. tuberculosis H37Rv growth with meropenem, percent inhibition; hits of this screen are not shown here; inhibition, % at 25 µM; actives 0.27% (n = 330,000); AID 434955;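 active = about 74% or more and at least 40 points above the plate without the antibiotic, then above 30% in a dose series; inconclusive = first-round hits that could not be retested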;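 also: growth measured after seven days incubation then overnight dye step; 0% = bacteria only wells and 100% = bacteria with antibiotic; twin plates without the antibiotic show which effects depend on it; some results filed as inactive read as strong as hits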
# Arbovirus anti = arbovirus infection inhibition; actives 0.37% (n = 200,000); inhibition, % at 10 µM; arbovirus infection cell-based antiviral screen;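 active = inhibition from about 30%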;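 also: bluetongue infection of BSR cells; cell survival read as ATP light after 72 h; 0% = infected wells without compound and 100% = uninfected wells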
# Arbovirus anti repeat = further read-out of Arbovirus anti, marked with its call; inhibition, %; measured here: 10K subset replicate screen; many hits read low in the repeat;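 first of two repeat runs on a subset; 0% = infected and 100% = uninfected wells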
# Numbers without * were called inactive; ? = inconclusive; · = not tested or not shown.
SMILES,Mtb H37Rv,RecA intein inh,YopH inh,Mtb bLac sens,Arbovirus anti,others
COC(=O)c1nc(-c2ccccc2)n[nH]1,-8%,·,-21,-4,-1,
CCOc1ccc2nc(CN3CCN(Cc4ccccc4OCC)C(CCO)C3)ccc2c1 (centres undefined),·,0.2,·,49,·,
CCCCn1c(NC(=O)C2CCCCC2)nc2ccccc21,0.88µM*,0.0,-1,92,-32,
C=CCn1c(SCC(=O)c2ccc(OC)cc2)nnc1C(C)NC(=O)c1cccs1 (centres undefined),0%,-1.4,16,-7,7,
O=c1[nH]c(=S)[nH]c2[nH]c(=S)[nH]c12,4%,-8.5,·,3,4,
O=C(COC(=O)CCNS(=O)(=O)c1ccccc1)NNC(=O)c1ccccc1,·,-0.2,·,4,·,
CC(=O)Nc1ccc(CN2CCN(Cc3ccc(C)cc3)C(CCO)C2)cc1 (centres undefined),-8%,0.6,·,-13,-3,
NC1=NC2(CCCCC2)N=C(Nc2ccc(Br)cc2)N1,10%,1.9,-11,6,5,
CCOc1ccccc1NC(=S)Nc1ccc2cn[nH]c2c1,2%,-3.5,·,-6,·,
CCc1cccc(CC)c1NC(=O)C(NS(=O)(=O)c1cccs1)c1ccccc1 (centres undefined),3%,4.1,-23,-7,-7,
CCn1c2ccccc2c2cc(NC(=S)N3CCOCC3)ccc21,4%,7.9,-36,-10,-15,
CCN1CCN(CCCN(Cc2ccco2)C(=S)Nc2ccc(Cl)c(C)c2)CC1,-2%,-1.9,·,-4,-12,
COc1cc(OC)c(NC2=NCCCCC2)cc1Cl,11%,-0.5,-21,-2,4,
COc1ccc(CCNC(=O)CC(=O)NCCc2ccc(OC)cc2)cc1,·,0.1,·,3,·,
CSc1ccccc1C(=O)C1CCCN(Cc2cccc(C)n2)C1 (centres undefined),12%,-1.5,·,80,3,
CCOC(=O)C1(Cc2ccccc2C)CCCN(C(=O)CCc2cccnc2)C1 (centres undefined),-7%,2.0,·,1,15,
COc1ccc(NC(=O)c2ccccn2)cc1,-9%,1.0,-31,-19,-7,
CCOc1ccccc1OCCN1CCC(Cc2ccccc2)CC1,0%,1.0,-19,5,-6,
Cc1ccccc1S(=O)(=O)Cc1ccc(C(=O)NC2CC2)o1,·,3.7,·,-9,·,
CCOC(=O)C1=C(CSc2nc3ccccc3s2)NC(=O)NC1c1cc(C)ccc1C (centres undefined),13%,·,-6,-3,1,
Cc1nn(-c2ccccc2)c2sc(C(=O)NC3CCCCC3)cc12,-5%,-1.4,-43,-5,-3,
Cc1ccc(C)c(C(=O)CSc2n[nH]c(-c3ccncc3)n2)c1,-10%,1.9,-46,-6,2,
COc1ccc(OC)c(S(=O)(=O)N2CCCC(C)C2)c1 (centres undefined),-2%,-0.3,0,11,1,
CC(C)(C)c1ccc(S(=O)(=O)Nc2cccc(C3OCCCO3)c2)cc1,-3%,0.9,-26,2,11,
CCOC(=O)C1CNc2cc(S(=O)(=O)CC)ccc2O1 (centres undefined),12%,-3.7,·,15,13,
Cc1ccc(NC(=O)C2CCC(N3C(=O)C4CCCCC4C3=O)CC2)cc1 (centres undefined),·,2.1,·,-4,·,
Cc1ccc(S(=O)(=O)NCCC(=O)NCCN2CCCCCC2)cc1,-9%,-1.6,-54,8,15,
COc1cc(CN2C(=S)NC(C)(C)CC2(C)O)cc(OC)c1 (centres undefined),-3%,0.5,-21,-1,5,
Cc1ccc(S(=O)(=O)N(C)c2ccc(OC(=O)CN3C(=O)NC4(CCCC4)C3=O)cc2)cc1,·,12,·,-17,·,
N/C(Cc1ccc([N+](=O)[O-])cc1)=N\OC(=O)COc1ccc2ccccc2c1,17%,-0.2,-29,89,10,
CCS(=O)(=O)CCSc1nc(C)cc(C)n1,-7%,0.6,-34,-13,-3,
CC(C)[C@H](NC(=O)OCc1ccccc1)C(=O)OCC(=O)Nc1c(F)cccc1F,-4%,3.9,-25,4,15,
COc1cccc(C2=NOC(C(=O)NCc3cccs3)C2)c1 (centres undefined),-8%,-1.4,-30,?,-3,
O=C(Nc1ccc(Cl)cc1)N1CCC(CO)(Cc2ccccc2)CC1,6%,8.6,·,5,-29,
Cc1ccc([N+](=O)[O-])cc1NC(=O)CN1CCCCC1,4%,-1.3,-10,-3,-1,
COCCCNC(=O)C(=O)N/N=C/c1ccc(OCC(=O)Nc2cccc(Cl)c2C)c(OC)c1,-1%,·,-28,5,1,
CCCCNC(=O)N1CCc2ccccc2C1,-2%,-3.7,-23,-3,-5,
O=S(=O)(Nc1ccccc1N1CCCCC1)c1cccs1,15%,-1.0,·,60,·,
COCCN(C(=O)c1snc(C(N)=O)c1N)C(C(=O)NC1CCCCC1)c1ccc(N(C)C)cc1 (centres undefined),·,1.4,·,-4,·,
Cc1cc(/C=C(\C#N)C(=O)NC2CCCCCC2)c(C)[nH]1,6%,-0.2,-10,10,28,
COc1ccc(C(=O)CSc2nnc(-c3cc4ccccc4cc3O)n2Cc2ccco2)cc1,-1%,-2.4,-31,8,4,
O=C(N/N=C\c1ccc[nH]1)c1cncc(Br)c1,·,-1.4,·,98,·,
COc1ccc(NC(=O)c2ccco2)c(NC(=O)c2ccc([N+](=O)[O-])cc2)c1,·,0.7,·,15,·,
Cc1cc(C)n(CCNC(=O)C2CCC(=O)N(Cc3ccc(Cl)cc3)C2)n1 (centres undefined),·,0.5,·,3,·,
COc1cccc2c1SCc1ccccc1C2CC(N)=O (centres undefined),·,0.5,·,4,·,
CCCCn1c(CNC(=O)C23CC4CC(CC(C4)C2)C3)nnc1SCC(=O)Nc1nnc(C)s1,0%,1.8,-52,-1,-3,
Cc1ccc(C(=O)NCC(=O)OCC(=O)Nc2ccc(Cl)cc2C(F)(F)F)cc1C,-1%,-1.9,-21,-2,-3,
Cc1ccc(N2CC(=O)N(c3ccc(C)cc3)CC2=O)cc1,-10%,·,·,-8,·,

# In the list so far, four have a furan ring, fused or not.
SMILES,Mtb H37Rv,RecA intein inh,YopH inh,Mtb bLac sens,Arbovirus anti,others
CCN1CCN(CCCN(Cc2ccco2)C(=S)Nc2ccc(Cl)c(C)c2)CC1,-2%,-1.9,·,-4,-12,
Cc1ccccc1S(=O)(=O)Cc1ccc(C(=O)NC2CC2)o1,·,3.7,·,-9,·,
COc1ccc(C(=O)CSc2nnc(-c3cc4ccccc4cc3O)n2Cc2ccco2)cc1,-1%,-2.4,-31,8,4,
COc1ccc(NC(=O)c2ccco2)c(NC(=O)c2ccc([N+](=O)[O-])cc2)c1,·,0.7,·,15,·,

# The results go on.
SMILES,Mtb H37Rv,RecA intein inh,YopH inh,Mtb bLac sens,Arbovirus anti,others
N#Cc1nc(Cc2ccccc2)oc1N1CCC(Cc2ccccc2)CC1,6%,7.2,-28,3,17,
COc1cc(NC(=O)c2ccccc2)c(OC)cc1NC(=O)CN1CCN(c2ccccn2)CC1,?,-0.5,-17,99,0,
COc1ccccc1-c1nnc2n1N=C(C)CS2,3%,-1.6,-63,-6,2,
CCOC(=O)C1=C(CC)Nc2ccccc2N=C1NC(=O)Nc1ccccc1OC,5%,1.3,-10,-2,-9,
O=C(c1cc([N+](=O)[O-])cc([N+](=O)[O-])c1)N1CCN(C(=O)c2ccco2)CC1,-8%,-1.7,·,98,·,
COc1cc(S(=O)(=O)N(Cc2ccc(C)cc2)Cc2ccco2)ccc1-n1cnnn1,-8%,0.2,-20,5,-10,
Cn1c(SCC(=O)NCc2ccc3c(c2)OCO3)nnc1-c1cc2ccccc2cc1O,-6%,-6.0,9,-5,4,
CCCN(CCC)CC(=O)N1CC(=O)Nc2ccccc21,·,0.5,·,-4,·,
CCOc1ccc(CC(=O)Nc2c(C(N)=O)oc3ccc(Br)cc23)cc1OCC,8%,0.3,3,5,-2,Arbovirus anti repeat=-3
COc1ccc2[nH]c(C)c(CN3CCCCC3)c(=O)c2c1,4%,1.4,·,-1,·,
O=C(Oc1ccc(Br)cc1)C1CC(=O)N(c2ccc(F)cc2)C1 (centres undefined),1%,37*,-39,7,0,
Cc1ccc(CNCC2CCCO2)s1 (centres undefined),-2%,0.3,9,6,6,
COc1ccccc1NC(=O)N1CCCC(c2nc3c(nnn3Cc3ccc(C)cc3)c(=O)[nH]2)C1 (centres undefined),2%,-1.5,-20,49,-21,
Cc1ccc(C(=O)NCC(=O)OCC(=O)NCC(F)(F)F)cc1,-1%,-3.3,·,-2,4,
CC(=O)N1CCN(c2ccc(NC(=O)c3ccc(C)c([N+](=O)[O-])c3)cc2)CC1,·,0.3,·,-19,·,
CCc1c(C)sc(NC(=O)CSc2nc3c(c(C(F)(F)F)n2)CCc2ccccc2-3)c1C#N,5%,·,-48,10,-12,
CCn1c(C)nc2cc(C(=O)NNS(=O)(=O)c3ccc(C)cc3C)ccc21,2%,-0.5,-33,-1,1,
C=CCN(CC=C)CCOc1cccc2ccccc12,5%,1.4,-22,2,-2,
CC(C)N(CCCNC(=O)c1ccc(N2CCCC2=O)cc1)Cc1ccccc1,-4%,-2.4,·,0,-1,
O=C(c1ccco1)N1CCN(C2CC(=O)N(c3ccc(C(F)(F)F)cc3)C2=O)CC1 (centres undefined),·,0.2,·,6,·,
CCOC(=O)Cc1nnc(NC(=O)C(CC)Sc2nc(C)cc(C)n2)s1 (centres undefined),5%,1.2,-2,8,6,
CCOc1ccccc1C(=O)Nc1cc(OC)ccc1OC,9%,5.6,-20,·,-9,
Cc1cccc(NC(=O)CN(C)S(=O)(=O)c2cnc[nH]2)c1,-6%,-0.4,-30,-6,2,
Cc1ccc(NC(=O)C(OC(=O)c2ccccc2Cl)c2ccccc2)cc1Cl (centres undefined),5%,-2.5,-20,-1,2,

# Quoted at random: five records from the list.
SMILES,Mtb H37Rv,RecA intein inh,YopH inh,Mtb bLac sens,Arbovirus anti,others
Cc1ccc([N+](=O)[O-])cc1NC(=O)CN1CCCCC1,4%,-1.3,-10,-3,-1,
O=C(Nc1ccc(Cl)cc1)N1CCC(CO)(Cc2ccccc2)CC1,6%,8.6,·,5,-29,
N#Cc1nc(Cc2ccccc2)oc1N1CCC(Cc2ccccc2)CC1,6%,7.2,-28,3,17,
C=CCN(CC=C)CCOc1cccc2ccccc12,5%,1.4,-22,2,-2,
COc1ccc(OC)c(S(=O)(=O)N2CCCC(C)C2)c1 (centres undefined),-2%,-0.3,0,11,1,

# New compounds follow
SMILES,Mtb H37Rv,RecA intein inh,YopH inh,Mtb bLac sens,Arbovirus anti,others
O=[N+]([O-])c1ccccc1/C=N/NC1=NS(=O)(=O)c2ccccc21,3%,-0.4,·,1,6,
COC(=O)c1ccccc1NC(=S)N(Cc1ccc2c(c1)OCO2)Cc1cc2cc(OC)ccc2[nH]c1=O,7%,-0.9,-10,1,5,
CCOP(=O)(NC(c1ccccc1)c1nc2ccccc2[nH]c1=O)OCC (centres undefined),·,-2.2,·,0,·,
CC(O)CN(C)CC/C=C1/c2ccccc2CSc2ccccc21 (centres undefined),3%,-0.4,-27,5,-31,
Nc1nnc(Cc2ccc(F)cc2)s1,-7%,0.4,·,-2,·,
CCN1C(=O)/C(=C\c2ccc(-c3ccc([N+](=O)[O-])cc3OC)o2)SC1=Nc1cccc(C(=O)O)c1,0%,14,·,·,3,
O=C1c2ccccc2C(Nc2ccccc2)N1c1ccc(Cl)cn1 (centres undefined),13%,·,-37,·,-6,
Cc1nn(C)c(Cl)c1CN1CCN(CC(C)C)C(CCO)C1 (centres undefined),-3%,1.2,·,0,2,
Cc1nn(Cc2ccc(C(=O)NN)o2)c(C)c1Cl,·,1.1,·,4,·,
Cc1sc(NC(=S)NC(=O)C2CCCCC2)c(C(N)=O)c1C,2%,4.5,-27,-1,11,
CC1CCCCC1NC(=O)Cn1cccc1C(=O)c1ccccc1 (centres undefined),·,-0.9,·,1,·,
Cc1ccc2c(c1)c(C1=NC(=S)NC1=O)c(O)n2C,-1%,-3.6,·,-7,-2,
O=C(NCc1ccccc1)C1CCCN(S(=O)(=O)c2ccc(F)cc2)C1 (centres undefined),·,0.9,·,2,·,
CCN(C(=O)COC(=O)c1cn(-c2ccccc2)nc1-c1ccccc1)C1CCS(=O)(=O)C1 (centres undefined),0%,-0.5,·,-6,0,
CCc1nccn1Cc1cc(C=O)ccc1OC,-3%,-2.9,·,-15,-1,
CN1CCN(Cc2nc3ccccc3n2C)CC1,-11%,1.0,-53,6,-1,
COc1ccc(CCNC(=O)CC2Oc3ccc(Cl)cc3NC2=O)cc1OC (centres undefined),-5%,-0.5,-46,8,6,Arbovirus anti repeat=5
CC1CN(C(=O)COC(=O)c2ccccc2O)CC(C)O1 (centres undefined),·,-2.0,·,0,·,
CCN1CCN(c2ccc(N)c(C)c2)CC1,0%,-5.4,·,5,6,
CCN(C(=O)c1cn(C)c(=O)c2cc(OC)c(OC)cc12)c1cc(OC)ccc1OC,-11%,-2.7,-33,-9,5,
COc1ccc(C(=O)Nc2ccc(C(=O)NCCc3ccccc3)cc2)cc1,-2%,-3.3,·,-4,-4,

# Compound activity: PubChem BioAssay, several laboratories

# These rows are one share of the data; the hit share may differ from the screen's.
